Screening data (PubChem)
UCH37 inh – human UCH37 deubiquitinating enzyme inhibition; Q9Y5K5; inhibition, % (test concentration not listed); purified proteasome/UCH37, Ub-AMC cleavage fluorescence; hit rate 0.33% among 330,000;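 active = mean of two replicates above 20%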;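 note: 0% = compound-free wells with enzyme and 100% = wells lacking proteasome; stock transfer was 100 nL into about 20 µL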
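Assay system: Proteasome-bound UCH37. Buffer or medium: pH 7.4 Tris-HCl (50 mM) with ovalbumin, ATP-MgCl2, DTT. Incubation: 30 min preincubation with enzyme, 25 min cleavage at room temperature. Measured by: fluorescence, ex 355 nm, em 460 nm. Read-out basis: percent inhibition. Control set: wells without proteasome as full block, compound-free enzyme plus substrate as uninhibited.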
LANA-H2B inh – blocks KSHV LANA binding to histone H2A/H2B; cell-free LANA-H2A/H2B peptide, fluorescence polarization; inhibition, % (no concentration beside the values); hit rate 0.6% among 320,000; AID 2629; in the data active = inhibition mostly above about 10%, no sharp cut-off; inactive = mostly below about 6.7%;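 note: stock transfer was 7.5 nL into about 10 µL; 0% = median of vehicle wells and 100% = median of positive control wells; one replicate is shown; the record names a cut of 25% in any replicate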
Target sequence (Q9QR71 whole entry, looked up): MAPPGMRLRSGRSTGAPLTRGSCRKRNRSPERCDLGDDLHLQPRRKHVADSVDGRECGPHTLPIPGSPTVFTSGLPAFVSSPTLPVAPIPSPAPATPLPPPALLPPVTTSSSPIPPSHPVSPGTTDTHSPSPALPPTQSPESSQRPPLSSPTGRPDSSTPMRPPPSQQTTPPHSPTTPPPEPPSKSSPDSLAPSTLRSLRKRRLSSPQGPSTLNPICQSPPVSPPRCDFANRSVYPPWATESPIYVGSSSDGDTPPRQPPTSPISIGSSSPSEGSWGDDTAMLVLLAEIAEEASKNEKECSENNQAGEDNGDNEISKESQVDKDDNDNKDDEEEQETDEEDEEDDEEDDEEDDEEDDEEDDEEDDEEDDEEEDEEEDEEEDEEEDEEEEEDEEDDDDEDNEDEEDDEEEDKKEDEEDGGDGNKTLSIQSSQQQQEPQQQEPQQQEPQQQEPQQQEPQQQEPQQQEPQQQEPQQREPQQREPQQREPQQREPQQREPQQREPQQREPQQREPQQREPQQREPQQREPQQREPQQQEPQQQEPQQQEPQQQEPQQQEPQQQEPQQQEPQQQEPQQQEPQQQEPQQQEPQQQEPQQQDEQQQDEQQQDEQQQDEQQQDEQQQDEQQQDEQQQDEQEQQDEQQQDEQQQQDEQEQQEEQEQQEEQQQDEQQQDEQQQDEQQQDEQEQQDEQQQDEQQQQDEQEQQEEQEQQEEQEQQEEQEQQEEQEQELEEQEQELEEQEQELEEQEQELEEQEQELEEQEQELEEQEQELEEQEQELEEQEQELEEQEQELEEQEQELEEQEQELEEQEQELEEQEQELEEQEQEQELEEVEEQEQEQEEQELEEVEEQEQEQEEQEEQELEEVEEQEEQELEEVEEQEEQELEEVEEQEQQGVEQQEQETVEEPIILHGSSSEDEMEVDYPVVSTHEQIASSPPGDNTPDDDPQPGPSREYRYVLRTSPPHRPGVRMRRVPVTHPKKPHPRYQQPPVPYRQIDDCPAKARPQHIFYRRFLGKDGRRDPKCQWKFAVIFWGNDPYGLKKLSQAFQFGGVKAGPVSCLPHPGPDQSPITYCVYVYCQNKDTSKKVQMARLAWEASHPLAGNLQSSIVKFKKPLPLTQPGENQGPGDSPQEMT
Calb FLC – C. albicans growth modulation with fluconazole; growth inhibition, % (no concentration beside the values); hit rate 0.57% among 300,000; AID 1979; C. albicans CaCi-2 (fluconazole-resistant clinical isolate) + fluconazole, Alamar Blue growth, 48 h;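 active = most replicates above 75%; inconclusive = exactly half above 75%; inactive = most below 75%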;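 note: all wells also contain fluconazole at 8 µg/ml as a sub-toxic cotreatment; 0% = median of DMSO wells and 100% = median of geldanamycin control wells; wells of about 8 µL received 7.5 nL stock; the first replicate is given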
T cruzi inh – blocks replication of Trypanosoma cruzi; hit rate 1.4% among 300,000; T. cruzi beta-gal in NIH3T3, luminescence, 90 h; inhibition, % (test concentration not listed);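 active = mean inhibition across valid replicates above about 55%, limit read from the data; inconclusive = mean below that limit but half or more replicates reach it; inactive = mean below it, under half of replicates reach it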;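 note: signal also drops with host cell toxicity which is not excluded here; 0% = plate median of DMSO wells and 100% = zero luminescence signal; higher percent means less beta-gal luminescence so fewer parasites; stock transfer was 50 nL into about 50 µL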
A1 inh – inhibitors of the anti-apoptotic protein A1, read as caspase activation | MEF A1-2A-BIM cells, Caspase-Glo 3/7 luminescence, 3 h; percent of clofoctol response, vehicle zero | caspase activation, % (concentration not given with the values) | hit rate 0.066% among 330,000 | AID 2462;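 active = over half of replicate activation scores above 10%, or exactly half above 10 with the replicate mean above 10; inconclusive = replicate mean below 10 yet half the replicates above 10; inactive = over half of replicates below 10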;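 note: wells of about 30 µL received 50 nL stock; many hits fall short of the cut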
B2AR ag – activates human beta-2 adrenergic receptor causing internalization; P07550; Am2.2-beta2AR cells, FAP receptor internalization, flow cytometry; reference of the scale not given here; response, % (test concentration not listed); hit rate 0.43% among 340,000;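 active = response above a set limit, near 3 SD of response in nonfluorescent compounds, cut at about 42% in these data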;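 note: stock transfer was 100 nL into about 11 µL; a reference agonist was the positive control; negative values mostly stem from fluorescent compounds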
RanGTP-Impb inh – disruptors of Ran-importin-beta complex formation – biochemical, FRET, CFP-Ran, YFP-importin-beta, homogeneous, primary screen; inhibition, % (no concentration beside the values); hit rate 1.1% among 300,000; cell-free CFP-Ran/YFP-importin-beta FRET ratio;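 active = most replicates above 15%; inconclusive = exactly half above 15%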;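 note: 0% = DMSO wells and 100% = Ran loaded with GDP instead of GTP; wells of about 40 µL received 100 nL stock; the first replicate is given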
Beta apoptosis – beta cell apoptosis inhibition | protection from apoptosis, % (test concentration not listed) | INS-1E cytokine-induced death, ATP luminescence, 48 h; percent of positive-control rescue, neutral wells zero | hit rate 0.8% among 300,000;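 active = all replicates at 75% or more, or half of them and the mean; inconclusive = half reach 75% but not the mean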;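 note: 0% = cytokine-treated negative control wells and 100% = positive control rescue; higher means more ATP so stronger rescue from cytokine killing; wells of about 40 µL received 100 nL stock; the first replicate is given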
* = called active by the depositor; ? = inconclusive; . = no result given; & = joins results of further samples.

SMILES	UCH37 inh	LANA-H2B inh	Calb FLC	T cruzi inh	A1 inh	B2AR ag	RanGTP-Impb inh	Beta apoptosis
C=CCC[C@H](Cc1ccc(F)cc1)C(=O)OC[C@@H](Cc1c[nH]c2ccccc12)NC(=O)[C@@H](CC=C)CC(=O)NCCO	1.9	-1.6	.	.	-0.2	25	.	0
CCOc1ccccc1NC(=O)c1cc(SC)ccc1Cl	-0.5	1.0	5	-9	1.6	-4	0.1	0
CNC(=O)c1ccc(Nc2nnc(-c3ccc(O)cc3)c3ccccc23)cc1	-15	-0.6	-3	-2	-0.3	25	1.1	.
O=C(NC(=S)Nc1ccc(S(=O)(=O)Nc2nccs2)cc1)c1ccc(F)cc1	4.0	2.9	2	-7	-3.2	-5	5.4	1
O=C(NCCN1CCN(c2ccccc2F)CC1)C1CC(=O)N(C2CCCC2)C1 (stereo not given)	-0.2	-1.8	-5	14	0.1	3	-0.3	-4
COCCn1c(SCC(=O)N2CCOCC2)nc2c(c1=O)SCC2	5.5	-0.8	5	0	-0.4	-6	-0.4	-5
CCCCc1ccc(NC(=S)NCCN2CCOCC2)cc1	0.6	-4.5	14	-8	-1.1	-14	-3.9	-1
C/C(N)=C(/C#N)C(=O)COC(=O)c1cc(-c2ccc(Br)cc2)nc2ccccc12	2.1&-0.1	3.7	-7	22	-0.6	4&-2	-4.0	1
Cc1ncoc1C(=O)N1CCCC(C(=O)c2cccc(OC(C)C)c2)C1 (stereo not given)	3.3	-2.8	-2	10	-1.3	-4	-1.6	-8
Cc1c(Nc2ncccc2C(=O)O)cccc1C(F)(F)F	0.2	-7.2	5	18	-0.5	-9	-2.3	2
C=CCN(c1ccccc1)S(=O)(=O)c1cccc(C(=O)NC2CCN(Cc3ccccc3)CC2)c1	2.7	1.7	-13	61*	0.8	9	-3.5	12
CCOc1cc(C(=O)OCC(=O)c2c(N)n(C)c(=O)n(C)c2=O)cc(OCC)c1OCC	3.7	.	36	7	.	1	-0.1	.
CSc1ccccc1NC(=S)Nc1ccc(S(N)(=O)=O)cc1	-1.4	-6.7	-15	-13	0.9	-6	?	0
CC1CCN(c2ccc(S(=O)(=O)Nc3cc(C(=O)O)cc(C(=O)O)c3)cc2[N+](=O)[O-])CC1	5.6	-2.3	-7	2	1.1	.	?	-4
O=C(Nc1nccs1)c1cc(S(=O)(=O)N2CCOCC2)ccc1Cl	6.1	1.9	-9	-9	0.6	-4	-1.3	-2
O=C(Nc1ccccc1C(=O)O)c1cncc(Br)c1	3.1	0.2	-11	-2	-3.0	4	-4.4	0
Nc1nc(SCC(=O)Nc2ccc(Oc3ccccc3)cc2)n[nH]1	4.4	-0.3	25	13	0.1	6	0.8	-5
COC(=O)[C@@H]1C[C@@]2(O)[C@H](O)[C@H](O)[C@H](O)C[C@H]2N1CC1CC1	4.5	1.0	2	-8	0.1	-5	1.7	1
Cc1cccc(C)c1Nc1nnc(SCc2nc3ccccc3c(=O)[nH]2)s1	-5.0	-2.4	22	8	-0.8	7	2.7	-6
C/C(=C\c1ccc(F)cc1)C(=O)c1c(C)cc(C)[nH]c1=O	4.4	.	-1	-2	.	-1	-2.4	.
C=CCOc1ccc(C2NC(=S)NC(C)=C2C(=O)c2ccccc2)cc1OC (stereo not given)	5.6	.	16	-5	-0.2	-4	-2.4	-15
O=C1NC2=C(CCc3ccccc32)C(c2ccc(Br)cc2)N1 (stereo not given)	-51	1.4	.	.	-0.6	3	.	30
Cc1ccc(NC(=O)C(C)Oc2ccccc2)cc1S(=O)(=O)N1CCCCCC1 (stereo not given)	1.3	-0.2	.	.	0.1	-4	.	-1
Cc1ccc(-c2noc(CCC(N)=O)n2)cc1	2.3	-2.6	1	-2	1.1	-11	?	3
Cc1onc(-c2ccccc2)c1C(=O)Nc1nnc(C(C)(C)C)s1	3.4	10*	-5	-10	0.4	-1	-1.4	-5

Going on with the list:
SMILES	UCH37 inh	LANA-H2B inh	Calb FLC	T cruzi inh	A1 inh	B2AR ag	RanGTP-Impb inh	Beta apoptosis
Cc1cc(Oc2ccc(N)cn2)ccc1Cl	-0.7	-3.8	0	19	-0.8	-11	3.4	-3
Cc1ccc(O)c(C=Nc2ccc3[nH]ncc3c2)c1	-4.3	4.2	9	-19	-0.3	-10	0.3	1
O=C(Nc1nccs1)OCc1ccccc1	3.8	-5.6	-1	12	-1.0	-3	-1.0	7
Cc1cc(N2CCN(C)CC2)nc2ccc(NC(=O)CCC(=O)NCCC(C)C)cc12	-107	-6.1	4	33	0.3	5	1.7	0
Cc1cccc(NC(=O)Cn2cc(C(=O)C3CC3)c3ccccc32)c1	1.7	4.4	-12	-22	0.3	-1	0.4	-3
COCCNC(=O)CN(CCc1ccccc1)S(=O)(=O)c1ccc(Br)cc1	6.1	-0.4	-1	-6	-0.1	-2	-2.5	-3
CCN(CC)c1ccc(Nc2cc3n(c(=O)n2)CCc2cc(OC)c(OC)cc2-3)cc1	6.7	0.7	0	19	-0.7	28	-190	-8
O=C(N/N=C/c1cc(Br)cc(Br)c1O)c1ccncc1	.	1.6	?	-4	-0.4	.	-8.1	79*
Cc1ccc(Nc2ncnc3sccc23)c(C)c1	-0.4	-4.3	-7	-7	0.0	10	5.1	.
Cc1ccccc1CC(=O)NCCN1CCCCC1	0.5	-5.8	-9	-8	1.0	8	2.5	-2
Cc1ccccc1NC(=O)c1cnn(-c2ccccc2)c1NC(=O)c1ccco1	6.1	2.2	10	12	-0.6	-2	1.6	1
N#Cc1c(NC(=O)/C=C/C(=O)O)sc2c1CCN(Cc1ccccc1)C2	-82	-4.0	15	-7	0.2	-20	141*	-3
Cc1cccc(OCC(=O)Nc2ccc(N3CCN(C(=O)c4ccccc4)CC3)cc2)c1C	3.6	-0.5	-1	22	0.1	9	-2.2	-1
Cc1c(NC(=O)OCCNC(=O)COc2ccc(Cl)cc2Cl)sc(=S)n1C	3.5	0.8	-3	7	-0.1	-15	1.9	3
COC(=O)c1ccc(CN2CCN(C3CCCC3)C(CCO)C2)cc1 (stereo not given)	1.9	3.5	-25	-2	-0.7	-1	2.3	-1
O=C(NCc1ccco1)c1cc(-c2ccccc2)nc2ccccc12	2.8	-1.2	6	4	0.9	-7	0.3	4
Cc1ccc(OCC(O)CNC(=O)c2ccccc2C(=O)O)cc1 (stereo not given)	-2.1	1.5	-1	-15	2.2	0	?	-1
COC(=O)COc1ccc(S(=O)(=O)N2CCN(c3ccccc3F)CC2)cc1C	2.2	1.3	0	7	-0.7	7	-4.5	-7
CC(C)(C)c1ccc(C(=O)Nc2ccc(C(=O)NCc3cccnc3)cc2)cc1	-1.5	3.4	39	17	0.7	7	4.8	113*
COCCNC(=O)/C(C#N)=C/c1cc(C)n(C2CCCCC2)c1C	5.7	0.9	-1	12	-2.0	11	-1.4	-6
Cc1cc(C(=O)NC(=S)Nc2ccccc2N2CCOCC2)ccc1[N+](=O)[O-]	1.1	-3.4	-10	9	1.2	-1	0.3	11
O=C(NC1CCCCC1)N1CCc2ccccc2C1	-0.2	-2.7	5	-8	0.4	10	-3.0	-12
COc1ccc(CNC(=O)C/C(C)=N/NC(=O)Cc2ccc(OC)c(OC)c2)cc1	.	3.5	-15	-8	0.0	-3	-2.3	-11
C=CCOc1ccc(/C(CC)=N/O)c(OC)c1	.	0.7	-19	16	0.1	0	7.2	-2
CCCc1cc(CNC(=O)C2CCC(=O)N(Cc3ccccc3F)C2)on1 (stereo not given)	.	1.0	-1	-8	-0.9	-1	0.5	-4

Following part
SMILES	UCH37 inh	LANA-H2B inh	Calb FLC	T cruzi inh	A1 inh	B2AR ag	RanGTP-Impb inh	Beta apoptosis
CC(=O)O[C@H]1CC[C@@]2(C)C(CCC3C2CC[C@]2(C)OC(=O)CCC32)C1 (stereo not given in full)	1.1	2.4	30	3	0.7	-6	-1.6	1
O=C(NCc1cccnc1)c1cccn2c(=O)c3sccc3nc12	-194	0.8	-2	-8	-0.5	-15	-3.1	0
O=C(Cn1ncc(N2CCOCC2)c(Cl)c1=O)c1ccc(Cl)cc1	3.0	-2.3	-5	8	1.8	-3	1.2	2
FC(F)(F)c1ccc(Cl)c(NC(=S)NC2CC2)c1	5.7	.	0	-3	0.9	-10	-4.1	-8
COc1ccc2sc(-c3ccc(S(C)(=O)=O)cc3)c(C(=O)NCCc3c[nH]c4ccccc34)c2c1	-5.8	2.1	.	.	0.8	6	.	-8
CCCCC1(CCCC)NC(=S)N(Nc2ccc(C)cc2)C1=O	0.6	-1.5	-8	-16	-0.3	-13	-1.7	6
Cc1cc(C)nc(SCC(=O)Nc2ncc3c(n2)CCCC3=O)n1	2.3	3.0	-7	-4	0.1	2	-2.0	-7
CCOC(=O)C1CCN(c2c(NCCCN(CC)c3ccccc3)c(=O)c2=O)CC1	1.3	2.4	2	-6	-0.5	6	1.2	9

In the list so far, these contain fluorine:
SMILES	UCH37 inh	LANA-H2B inh	Calb FLC	T cruzi inh	A1 inh	B2AR ag	RanGTP-Impb inh	Beta apoptosis
C=CCC[C@H](Cc1ccc(F)cc1)C(=O)OC[C@@H](Cc1c[nH]c2ccccc12)NC(=O)[C@@H](CC=C)CC(=O)NCCO	1.9	-1.6	.	.	-0.2	25	.	0
O=C(NC(=S)Nc1ccc(S(=O)(=O)Nc2nccs2)cc1)c1ccc(F)cc1	4.0	2.9	2	-7	-3.2	-5	5.4	1
O=C(NCCN1CCN(c2ccccc2F)CC1)C1CC(=O)N(C2CCCC2)C1 (stereo not given)	-0.2	-1.8	-5	14	0.1	3	-0.3	-4
Cc1c(Nc2ncccc2C(=O)O)cccc1C(F)(F)F	0.2	-7.2	5	18	-0.5	-9	-2.3	2
C/C(=C\c1ccc(F)cc1)C(=O)c1c(C)cc(C)[nH]c1=O	4.4	.	-1	-2	.	-1	-2.4	.
COC(=O)COc1ccc(S(=O)(=O)N2CCN(c3ccccc3F)CC2)cc1C	2.2	1.3	0	7	-0.7	7	-4.5	-7
CCCc1cc(CNC(=O)C2CCC(=O)N(Cc3ccccc3F)C2)on1 (stereo not given)	.	1.0	-1	-8	-0.9	-1	0.5	-4
FC(F)(F)c1ccc(Cl)c(NC(=S)NC2CC2)c1	5.7	.	0	-3	0.9	-10	-4.1	-8
